Vaccinia inh: blocks a specific stage of Vaccinia orthopoxvirus infection | Vaccinia-infected cells, mCherry/Venus stage reporter fluorescence; hits give low values; some inactives read as strong as hits | activity change (mCherry), % (concentration not given with the values) | actives 0.01% (n = 89,000) | AID 1053133;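 active = mCherry past -33% and 40 or more points under the early reporter, replicates agreeing; inconclusive = past -33% without that gap or agreement; tested in A549 cells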;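 also: scaled between vehicle wells and reference inhibitor wells; 23 nL library stock went into each well; one replicate is shown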
Vaccinia inh Venus: recorded beside Vaccinia inh, whose call it bears; activity change (Venus), %; measured here: Venus reporter, other viral stage;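 negative = less Venus signal; first of two replicates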
Numbers without * were called inactive; ? = inconclusive; . = not tested or not shown. The list is partial; rates above refer to the full screens.

SMILES | Vaccinia inh | Vaccinia inh Venus
CNC[C@H]1Oc2cc(C#Cc3ccccc3OC)ccc2S(=O)(=O)N([C@H](C)CO)C[C@@H]1C | ? | .
C[C@@H]1CN([C@@H](C)CO)C(=O)c2cccc(NS(=O)(=O)c3ccc(F)cc3)c2O[C@H]1CN(C)C(=O)Nc1cccc2ccccc12 | 13 | 7
O=C(Nc1ccc(F)cc1)N1CC(=O)N2[C@H](CO)[C@H](c3ccc(Br)cc3)[C@H]2C1 | 14 | 5
COCC(=O)N(C)C[C@@H]1Oc2cc(-c3ccc(C)cc3)ccc2S(=O)(=O)N([C@H](C)CO)C[C@@H]1C | -2 | -6
Cc1ccccc1NC(=O)Nc1ccc2c(c1)C(=O)N(C)[C@H]1CC[C@H](CC(=O)NCC3CC3)O[C@H]1CO2 | -4 | -3
CCCC#Cc1ccc2c(c1)O[C@H](CN(C)Cc1ccncc1)[C@@H](C)CN([C@H](C)CO)S2(=O)=O | ? | .
CNC[C@@H]1Oc2cc(-c3cncnc3)ccc2S(=O)(=O)N([C@H](C)CO)C[C@H]1C | 3 | 13
O=C(C[C@H]1CC[C@@H](NC(=O)c2cccnc2)[C@H](CO)O1)NCc1ccc(Cl)c(Cl)c1 | -12 | 1
CN(C)CCCNC(=O)C[C@H]1CC[C@@H]2[C@H](COC[C@H](O)CN2Cc2cccc(F)c2)O1 | 15 | 10
CC(C)NC(=O)N(C)C[C@H]1Oc2c(NC(=O)c3ccc(-c4nccs4)cc3)cccc2C(=O)N([C@@H](C)CO)C[C@@H]1C | 7 | -1
CC(C)CC#Cc1cnc2c(c1)C(=O)N([C@H](C)CO)C[C@H](C)[C@@H](CN(C)S(=O)(=O)c1cccs1)O2 | -25 | -15
C[C@@H]1CCCCO[C@@H](CN(C)C(=O)Nc2ccc(F)cc2)[C@@H](C)CN([C@H](C)CO)C(=O)c2cc(NC(=O)C3CCCCC3)ccc2O1 | 2 | 4
O=C(C1=C[C@H](c2ccc3c(c2)OCO3)C[C@H](OCc2ccc(CO)cc2)O1)N1CCOCC1 | 3 | 8
C#CCNC(=O)C1=C[C@@H](C2CC2)C[C@@H](OCc2ccc(CO)cc2)O1 | 20 | 7
O=C(CN1CCOCC1)N1[C@H](CO)[C@H]2c3ccccc3NC[C@H]21 | 6 | -7
COc1cccc(S(=O)(=O)N2CC3(CN[C@@H](CO)c4[nH]c5cc(OC)ccc5c43)C2)c1 | -22 | -27
CCC(=O)N1CC2(C1)[C@@H](c1ccccc1)[C@@H](CO)N2CC1CC1 | -2 | 0
C[C@@H]1CCCCO[C@H](CN(C)Cc2ccncc2)[C@H](C)CN([C@H](C)CO)C(=O)c2cc(NC(=O)c3ccncc3)ccc2O1 | 7 | 3
Cc1ccc(S(=O)(=O)NCC[C@@H]2CC[C@H](NC(=O)c3ccccn3)[C@@H](CO)O2)cc1 | -1 | 3
C[C@@H]1CN([C@@H](C)CO)C(=O)c2cc(NC(=O)Nc3ccc(F)cc3)ccc2O[C@@H]1CN(C)Cc1ccc(-c2ccccc2)cc1 | ? | .
C/C=C/c1cnc2c(c1)C(=O)N([C@@H](C)CO)C[C@@H](C)[C@H](CN(C)S(=O)(=O)c1ccc(OC)cc1)O2 | 5 | -6
O=C(N[C@H]1CC[C@H](CCn2cc(Cc3ccccc3)nn2)O[C@@H]1CO)c1cnccn1 | 9 | 13
C[C@@H]1CN([C@H](C)CO)C(=O)c2cccc(NC(=O)Nc3cccc4ccccc34)c2O[C@@H]1CN(C)S(=O)(=O)c1cccs1 | -2 | -1
CCCC(=O)Nc1ccc2c(c1)C(=O)N(C)C[C@H](OC)[C@H](C)CN(CCC(F)(F)F)[C@H](C)CO2 | 3 | 7
CO[C@H]1CN(C)C(=O)c2cc(NC(=O)Nc3c(C)noc3C)ccc2OC[C@H](C)N(CC2CC2)C[C@@H]1C | -3 | 0

Profiles from above. Order of values: Vaccinia inh	Vaccinia inh Venus
Record of CN(C)CCCNC(=O)C[C@H]1CC[C@@H]2[C@H](COC[C@H](O)CN2Cc2cccc(F)c2)O1 = 15	10
Record of CC(C)NC(=O)N(C)C[C@H]1Oc2c(NC(=O)c3ccc(-c4nccs4)cc3)cccc2C(=O)N([C@@H](C)CO)C[C@@H]1C = 7	-1

Single values from the entries so far.
Vaccinia inh result of CC(C)NC(=O)N(C)C[C@H]1Oc2c(NC(=O)c3ccc(-c4nccs4)cc3)cccc2C(=O)N([C@@H](C)CO)C[C@@H]1C → 7
Vaccinia inh result of O=C(C[C@H]1CC[C@@H](NC(=O)c2cccnc2)[C@H](CO)O1)NCc1ccc(Cl)c(Cl)c1 → -12
Vaccinia inh Venus result of CO[C@H]1CN(C)C(=O)c2cc(NC(=O)Nc3c(C)noc3C)ccc2OC[C@H](C)N(CC2CC2)C[C@@H]1C → 0
Vaccinia inh Venus result of CN(C)CCCNC(=O)C[C@H]1CC[C@@H]2[C@H](COC[C@H](O)CN2Cc2cccc(F)c2)O1 → 10
Vaccinia inh Venus result of O=C(N[C@H]1CC[C@H](CCn2cc(Cc3ccccc3)nn2)O[C@@H]1CO)c1cnccn1 → 13

Returning to the listing with the 2 entries that preceded the break.
SMILES | Vaccinia inh | Vaccinia inh Venus
CCCC(=O)Nc1ccc2c(c1)C(=O)N(C)C[C@H](OC)[C@H](C)CN(CCC(F)(F)F)[C@H](C)CO2 | 3 | 7
CO[C@H]1CN(C)C(=O)c2cc(NC(=O)Nc3c(C)noc3C)ccc2OC[C@H](C)N(CC2CC2)C[C@@H]1C | -3 | 0
COc1ccc(S(=O)(=O)Nc2ccc3c(c2)[C@H]2C[C@H](CC(=O)NCC4CC4)O[C@@H](CO)[C@H]2O3)cc1 | 9 | 9
CCCN(C)C[C@H]1OCCCC[C@H](C)Oc2ccc(NC(=O)Cc3ccccc3)cc2C(=O)N([C@@H](C)CO)C[C@H]1C | -11 | -3
O=C(NC1CCC1)[C@@H]1[C@@H](CO)[C@@H]2Cn3c(ccc(-c4ccncc4)c3=O)[C@@H]2N1CCc1ccccc1 | 2 | -4
CO[C@H]1CN(C)C(=O)c2cc(NS(C)(=O)=O)ccc2OC[C@H](C)N(CCC(F)(F)F)C[C@H]1C | 11 | 10
CNC[C@H]1OCCCC[C@H](C)Oc2ccc(NS(=O)(=O)c3cccs3)cc2C(=O)N([C@@H](C)CO)C[C@H]1C | 27 | 12
C[C@@H]1CN([C@@H](C)CO)S(=O)(=O)c2ccc(-c3ccc(C(=O)N(C)C)cc3)cc2O[C@H]1CN(C)C(=O)C1CCCCC1 | -4 | -2
C/C=C/c1cnc2c(c1)C(=O)N([C@@H](C)CO)C[C@H](C)[C@H](CN(C)Cc1ccc(F)cc1)O2 | -1 | 2
COc1ccc(S(=O)(=O)N(C)C[C@H]2Oc3c(NC(=O)c4nc5ccccc5s4)cccc3C(=O)N([C@@H](C)CO)C[C@H]2C)cc1 | -25 | -26
CO[C@@H]1CN(C)C(=O)c2ccc(NC(C)=O)cc2OC[C@H](C)N(Cc2ccncc2)C[C@H]1C | 8 | 9
C[C@H](CO)N1C[C@H](C)[C@@H](CN(C)Cc2ccc(C(=O)O)cc2)Oc2c(NC(=O)Nc3cccc4ccccc34)cccc2C1=O | 14 | 10
CC(=O)Nc1ccc2c(c1)C(=O)N(C)[C@@H]1CC[C@@H](CC(=O)NCc3ccc(Cl)cc3)O[C@@H]1CO2 | -2 | -1
C[C@H](CO)N1C[C@H](C)[C@@H](CN(C)Cc2ccc(-c3ccccc3)cc2)Oc2ccc(NC(=O)c3ccncc3)cc2C1=O | -21 | -24
COc1ccccc1S(=O)(=O)N[C@H]1CC[C@@H](CCNC(=O)C2CCC2)O[C@H]1CO | -3 | 0
COCC(=O)N1CC2(C1)[C@H](c1ccccc1)[C@@H](CO)N2C(=O)NC1CCCC1 | 22 | 22
O=C(C[C@H]1CC[C@@H]2[C@H](COC[C@@H](O)CN2C(=O)c2ccncc2)O1)NCc1cc(F)cc(F)c1 | 7 | 6
CN(C)C(=O)C[C@@H]1CC[C@H]2[C@@H](COC[C@@H](O)CN2CC2CCOCC2)O1 | 9 | 4
COCCNC(=O)C[C@@H]1CC[C@H]2[C@@H](COc3ccc(NC(=O)C4CCCC4)cc3C(=O)N2C)O1 | 13 | 8
CO[C@H]1CN(C)C(=O)c2ccc(NS(=O)(=O)c3ccccc3)cc2OC[C@@H](C)N(C)C[C@H]1C | 9 | 6
CCC(=O)Nc1ccc2c(c1)C(=O)N(C)[C@H]1CC[C@@H](CC(=O)NCC3CCCCC3)O[C@@H]1CO2 | 3 | 1
CC(=O)NC[C@H]1[C@@H](c2ccc(-c3ccccc3)cc2)[C@H](CO)N1C(=O)C1CC1 | 7 | 8
Cc1ccc(S(=O)(=O)N(C)C[C@@H]2OCCCC[C@H](C)Oc3ccc(NS(=O)(=O)c4ccc(Cl)cc4)cc3C(=O)N([C@@H](C)CO)C[C@H]2C)cc1 | -21 | -15
COc1ccccc1-c1ccc2c(c1)O[C@H](CN(C)CC1CCOCC1)[C@H](C)CN([C@@H](C)CO)S2(=O)=O | -6 | 1
O=C(C[C@@H]1CC[C@@H]2[C@H](COC[C@@H](O)CN2C(=O)c2ccccc2F)O1)NCc1ccc(Cl)c(Cl)c1 | 2 | 13
C[C@H]1CCCCO[C@@H](CN(C)C)[C@@H](C)CN([C@@H](C)CO)C(=O)c2cc(NC(=O)Nc3ccccc3)ccc2O1 | -4 | -6
O=C(C[C@@H]1CC[C@@H](NC(=O)C2CCOCC2)[C@H](CO)O1)Nc1ccccc1 | 9 | 7

Carrying on:
SMILES | Vaccinia inh | Vaccinia inh Venus
CC(C)(C)[S@@](=O)N1Cc2cc(C(=O)N[C@@H]3CCN(Cc4ccccc4)C3)nc(-c3cccc(-c4ccncc4)c3)c2[C@H]1CCO | -4 | 19
O=C(Nc1cccc(Cl)c1)N1C[C@H]2[C@@H](c3ccccc31)[C@H](CO)N2Cc1ccncc1 | 2 | -1
C[C@H](CO)N1C[C@H](C)[C@@H](CN(C)CC2CCCCC2)OCCCC[C@H](C)Oc2ccc(NC(=O)Nc3ccc(C(F)(F)F)cc3)cc2C1=O | 19 | 6
C[C@@H]1CN([C@@H](C)CO)C(=O)c2cc(N(C)C)ccc2O[C@@H]1CN(C)C(=O)Nc1ccc2c(c1)OCO2 | -9 | -6
O=C(NCCc1ccncc1)[C@@H]1[C@@H](CO)[C@@H]2Cn3c(ccc(-c4ccccc4)c3=O)[C@@H]2N1C(=O)C1CC1 | 7 | 6
C[C@@H]1CCCCO[C@@H](CN(C)S(=O)(=O)c2ccc(Cl)cc2)[C@H](C)CN([C@H](C)CO)C(=O)c2cc(NC(=O)Cc3ccccc3)ccc2O1 | ? | .
CCCC#Cc1ccc([C@@H]2[C@@H](CO)N(C(=O)C3CCCCC3)[C@H]2C#N)cc1 | -23 | -10
O=C(Nc1ccc2c(c1)OCO2)N[C@@H]1CC[C@H](CCNC(=O)C2CCCC2)O[C@@H]1CO | 0 | 16
CO[C@H]1CN(C)C(=O)c2cc(NS(C)(=O)=O)ccc2OC[C@@H](C)N(CCC(F)(F)F)C[C@@H]1C | 5 | 0
C[C@@H]1CN([C@@H](C)CO)C(=O)c2cccc(NC(=O)Nc3ccc(F)cc3)c2O[C@H]1CN(C)Cc1ccc(C(=O)O)cc1 | 6 | 0
C[C@H]1CN([C@@H](C)CO)C(=O)c2cccc(NC(=O)Nc3ccc4c(c3)OCO4)c2O[C@H]1CN(C)C(=O)Nc1cccc2ccccc12 | -3 | 2
CCC(=O)N1C[C@@H](C)[C@@H](OC)CN(C)C(=O)c2cc(NC(=O)C3CCCCC3)ccc2OC[C@H]1C | 3 | -2
CC(=O)N(C)C[C@@H]1Oc2ncc(C#C[C@@H](C)O)cc2C(=O)N([C@H](C)CO)C[C@@H]1C | 30 | 12
CN1CCN(C(=O)C[C@@H]2CC[C@H]3[C@@H](COc4ccc(NC(=O)c5cscn5)cc4C(=O)N3C)O2)CC1 | 4 | 8
CCCN1C[C@H](C)[C@@H](OC)CN(C)C(=O)c2cc(NC(=O)c3ccccc3F)ccc2OC[C@H]1C | 0 | -6
COCCNC(=O)C[C@@H]1CC[C@@H]2[C@H](COC[C@H](O)CN2Cc2ccc(Cl)c(Cl)c2)O1 | 3 | -6
COc1ccc(-c2ccc3c(c2)[C@@H]2[C@@H](CCN2S(=O)(=O)c2ccccc2C)[C@@H](CO)N3)cc1 | ? | .
C[C@@H]1CN([C@@H](C)CO)C(=O)Cc2cc(NS(C)(=O)=O)ccc2O[C@H]1CN(C)C(=O)NC1CCCCC1 | 0 | 7
C[C@@H]1CN([C@H](C)CO)C(=O)c2cc(NC(=O)Cn3cnnn3)ccc2O[C@H]1CN(C)Cc1ccc(C(=O)O)cc1 | 8 | 5
C[C@@H]1CCCCO[C@@H](CN(C)S(=O)(=O)c2ccccc2)[C@H](C)CN([C@H](C)CO)C(=O)c2cc(NC(=O)Nc3ccccc3)ccc2O1 | -10 | -3
N#C[C@H]1[C@@H](c2ccccc2C2=CCCCC2)[C@@H](CO)N1C(=O)c1ccccn1 | 6 | 2
Cc1noc(C)c1NC(=O)N(C)C[C@H]1Oc2ncc(C#CC(C)C)cc2C(=O)N([C@H](C)CO)C[C@H]1C | 2 | -1
C[C@@H]1CCCCO[C@H](CN(C)C(=O)C2CCCCC2)[C@@H](C)CN([C@H](C)CO)C(=O)c2cc(NS(C)(=O)=O)ccc2O1 | -8 | -4
CO[C@@H]1CN(C)C(=O)c2ccc(NC(=O)C3CCCCC3)cc2OC[C@H](C)N(C(=O)c2ccccc2)C[C@H]1C | 23 | 11
C[C@@H]1CN([C@@H](C)CO)C(=O)Cc2cc(NC(=O)CCCCCC(=O)Nc3ccccc3N)ccc2O[C@H]1CN(C)Cc1ccc(Cl)c(Cl)c1 | ? | .
O=C(Cc1ccccn1)N[C@@H]1CC[C@H](CCn2cc(-c3cccnc3)nn2)O[C@@H]1CO | 17 | 6
C[C@@H]1CN([C@@H](C)CO)S(=O)(=O)c2ccc(C#CC3CC3)cc2O[C@@H]1CN(C)C(=O)C1CC1 | -10 | -16

Source: PubChem BioAssay
